# High-throughput results as filed in PubChem BioAssay.
# Mtb betalactam: beta-lactam sensitization of Mtb H37Rv; M. tuberculosis H37Rv growth with meropenem, percent inhibition; hits of this screen are not shown here; inhibition, % at 25 µM; 330,000 tested, 0.27% active; AID 434955;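 active = about 74% or more and at least 40 points above the plate without the antibiotic, then above 30% in a dose series; inconclusive = first-round hits that could not be retested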;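 note: growth measured after seven days incubation then overnight dye step; 0% = bacteria only wells and 100% = bacteria with antibiotic; twin plates without the antibiotic show which effects depend on it; some results filed as inactive read as strong as hits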
# YopH inh: inhibitors of Yersinia enterocolitica YopH tyrosine phosphatase | AID 898 | 140,000 tested, 0.16% active | inhibition, %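 (about 10 µM by stock and volumes)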 | fluorescence Ex485/Em525;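 active = inhibition of 50% or more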;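 note: controls were vehicle for no effect and minimum signal wells for full effect; inactives centre near -20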
# RecA intein inh: inhibitors of M. tuberculosis RecA intein splicing; P9WHJ3; cell-free RecA intein splicing, fluorescence; inhibition, %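 (about 9 µM by stock and volumes)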; 290,000 tested, 0.75% active; AID 2221; in the data active = inhibition above about 30%; inconclusive = no clear call, values can overlap the other calls;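 note: 0% = vehicle wells and 100% = reference inhibitor control wells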
# Target sequence (P9WHJ3 whole entry, looked up): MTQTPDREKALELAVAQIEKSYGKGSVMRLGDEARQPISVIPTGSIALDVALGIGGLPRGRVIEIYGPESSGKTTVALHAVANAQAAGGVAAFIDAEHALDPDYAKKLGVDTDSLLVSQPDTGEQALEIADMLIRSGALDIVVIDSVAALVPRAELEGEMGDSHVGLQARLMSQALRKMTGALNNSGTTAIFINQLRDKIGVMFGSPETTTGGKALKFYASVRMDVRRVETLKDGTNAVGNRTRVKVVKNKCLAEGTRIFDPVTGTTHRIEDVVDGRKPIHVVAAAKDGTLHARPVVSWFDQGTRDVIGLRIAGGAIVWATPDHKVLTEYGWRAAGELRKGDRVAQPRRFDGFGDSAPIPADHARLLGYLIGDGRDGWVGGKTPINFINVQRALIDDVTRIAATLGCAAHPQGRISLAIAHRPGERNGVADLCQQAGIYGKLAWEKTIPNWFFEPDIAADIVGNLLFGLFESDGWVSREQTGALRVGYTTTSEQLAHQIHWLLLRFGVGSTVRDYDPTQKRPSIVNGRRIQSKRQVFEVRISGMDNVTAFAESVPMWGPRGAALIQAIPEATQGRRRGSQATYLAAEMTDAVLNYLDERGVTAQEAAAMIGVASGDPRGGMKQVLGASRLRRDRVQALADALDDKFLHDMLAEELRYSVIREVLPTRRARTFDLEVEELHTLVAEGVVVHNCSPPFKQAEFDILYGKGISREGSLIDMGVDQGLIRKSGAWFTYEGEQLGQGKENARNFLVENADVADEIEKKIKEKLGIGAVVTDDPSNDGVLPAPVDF
# Mtb H37Rv: M. tuberculosis H37Rv growth inhibitors, H37Rv strain (AID 1626); inhibition, % at 10 µM; hits with a dose series show IC50 in µM; M. tuberculosis H37Rv growth inhibition; higher % means a stronger effect; 220,000 tested, 0.95% active;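 active = confirmed in a dose series; inconclusive = inhibition above 80% but not taken into the dose series; inactive = below 80% or under 30% at every dose of the series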;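 note: bacteria incubated seven days before Alamar blue readout; 0% = bacteria only wells and 100% = bacteria with antibiotic wells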
# Arbovirus anti: blocks arbovirus infection; arbovirus infection cell-based antiviral screen; inhibition, % at 10 µM; 200,000 tested, 0.37% active; AID 1251;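 active = inhibition from about 30%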;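 note: bluetongue infection of BSR cells; cell survival read as ATP light after 72 h; 0% = infected wells without compound and 100% = uninfected wells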
# Arbovirus anti repeat: further read-out of Arbovirus anti, marked with its call; inhibition, %; measured here: 10K subset replicate screen; many hits read low in the repeat;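 first of two repeat runs on a subset; 0% = infected and 100% = uninfected wells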
# Active calls of the source: *; ? = inconclusive; / = not tested or not shown. An excerpt (hit frequency here may not be typical).
SMILES,Mtb betalactam,YopH inh,RecA intein inh,Mtb H37Rv,Arbovirus anti,others
CC(C)(C)c1cc(=O)[nH]c(SCc2ccccc2Cl)n1,-3,/,-0.2,2%,4,
O=C(NC1CCCCCC1)c1c2c(nc3ccccc13)CCN(Cc1ccccc1)C2,4,-29,-7.5,7%,4,
O=C(C1CCCO1)N1CCN(S(=O)(=O)c2ccc(F)cc2)CC1 (stereo unspecified),1,/,-0.9,/,/,
CCOc1c2ccc(C(=O)NCc3cc(C(F)(F)F)cc(C(F)(F)F)c3)cc2nn1CCOC,14,-29,-0.3,0%,3,
O=C(CCc1nc2ccccc2[nH]c1=O)OCc1ccc(S(=O)(=O)N2CCOCC2)cc1,1,9,0.5,-5%,11,
CCn1c(NCc2cccc(OC)c2OC)nc2ccccc21,0,-20,-4.7,-5%,0,
O=C(NC1CC1)C1=C[C@H](C2CCCCC2)C[C@H](OCCCCO)O1,-1,/,2.2,-8%,/,
CCOC(=O)N/N=C/c1cn(Cc2ccc(F)cc2)c2ccccc12,0,/,0.9,2%,/,
CCCCNC(=O)c1cn(CC)c2ccc(S(=O)(=O)N3CCCC3)cc2c1=O,4,/,-0.4,/,/,
O=C(Nc1ccccc1)OC1C2CCC1C(N1CCCCC1)CC2 (stereo unspecified),-12,-47,2.5,-4%,1,
O=C(NCc1ccco1)c1ccc(Cl)nc1,3,/,-0.1,-14%,/,
O=C(CCCn1c(=S)[nH]c2cc3c(cc2c1=O)OCO3)NCCc1ccccc1Cl,2,/,-0.5,/,/,
O=C(NCc1cccnc1)/C(=C\c1ccc(-c2ccc(Br)cc2)o1)S(=O)(=O)c1ccccc1,95,-12,51*,?,-44,
Cc1ccc2c(c1)C(c1ccc([N+](=O)[O-])cc1)=NNC(c1ccc(Br)cc1)=N2,-5,-29,-0.1,53%,-31,
COc1ccccc1C(=O)NCCNc1nc2cc(C)cc(C)c2cc1C#N,7,/,-13,/,/,
COc1cc(C)c(Cl)cc1S(=O)(=O)NCc1ccco1,-9,-1,6.2,3%,3,
CC(C)CCn1c(CN2CCN(c3cccc(Cl)c3)CC2)nc2c1c(=O)n(C)c(=O)n2C,-3,/,2.7,14%,/,
O=C(CCNC(=O)c1ccccc1)NCC1CCCCC1,-5,/,1.9,5%,11,
CC1CN(C(=O)Nc2ccc3snnc3c2)c2ccccc21 (stereo unspecified),1,-27,/,11%,-3,Arbovirus anti repeat=2
CCC1CCCCN1CCCNC(=O)Cn1nc(C)n2nc(-c3ccccc3)cc2c1=O (stereo unspecified),?,/,-0.6,/,/,

# Quoted at random: two entries already listed, in no set order.
SMILES,Mtb betalactam,YopH inh,RecA intein inh,Mtb H37Rv,Arbovirus anti,others
CCOc1c2ccc(C(=O)NCc3cc(C(F)(F)F)cc(C(F)(F)F)c3)cc2nn1CCOC,14,-29,-0.3,0%,3,
Cc1ccc2c(c1)C(c1ccc([N+](=O)[O-])cc1)=NNC(c1ccc(Br)cc1)=N2,-5,-29,-0.1,53%,-31,

# Other compounds follow:
SMILES,Mtb betalactam,YopH inh,RecA intein inh,Mtb H37Rv,Arbovirus anti,others
COc1ccc(Cl)cc1Nc1nc(C)nc2c1oc1ccccc12,2,/,0.0,/,/,
O=c1[nH]c2ccccc2cc1-c1nnn(-c2ccc(Cl)c(Cl)c2)n1,-7,/,-4.6,-4%,/,
COCCOC(=O)C1=C(N)Oc2c(c(=O)oc3ccccc23)C1c1ccncc1 (stereo unspecified),4,-33,0.5,2%,0,
COc1cc(C2C(C(=O)C(C)(C)C)=C(O)C(=O)N2Cc2ccccc2)ccc1O (stereo unspecified),-6,/,-4.3,/,/,
COc1ccccc1CNS(=O)(=O)c1ccc2c(c1)oc(=O)n2C,-6,-42,0.2,-3%,4,Arbovirus anti repeat=10
Oc1ccc(Br)cc1-c1cc(-c2ccccc2F)[nH]n1,50,-34,0.7,4%,22,
COc1cccc(NC(=O)CN2CCN(S(=O)(=O)c3ccc(F)cc3)CC2)c1,-1,-18,0.6,-8%,5,
Cc1ccccc1NC(=O)COC(=O)c1ccc(CSc2ccc(Cl)cc2)cc1,4,-10,1.7,3%,5,
CCc1nc(C)cn1S(=O)(=O)c1cc(OC)c(C)cc1C,-9,-36,1.2,1%,0,
COc1ccccc1CNC(=O)CNC(=O)[C@@H]1Cc2ccccc2CN1,3,/,-0.9,/,/,
COc1ccc(OC)c(S(=O)(=O)N2CCC(C(=O)N(C)Cc3ccccc3)CC2)c1,-1,/,-2.2,1%,/,
CCOCc1nnc(NC(=O)C2CC(=O)N(CCc3ccc(F)cc3)C2)s1 (stereo unspecified),6,/,2.4,/,/,
COc1ccc(OC)c(NC(=S)Nc2ccccc2)c1,7,/,-2.4,/,/,
CCCNC(=O)NC(=O)COC(=O)c1ccc(OC)c(S(=O)(=O)N2CCCc3ccccc32)c1,-7,-16,-1.8,0%,11,
Cc1ccc(C(=O)NCC(=O)OC(C)C(=O)NCCC2=CCCCC2)cc1C (stereo unspecified),5,-27,-0.8,9%,5,
CCCc1cc(C(=O)Nc2cccnc2Cl)no1,3,-36,1.0,20%,8,
NC(=O)c1ccccc1NC(=O)c1ccccc1S(=O)(=O)c1ccccc1[N+](=O)[O-],12,-23,-1.8,1%,7,
O=C(CC1SCCNC1=O)Nc1ccc(Cl)c(Cl)c1 (stereo unspecified),0,/,2.0,2%,8,
COc1ccc(CCNC(=O)c2cn3ccc(C)cc3n2)cc1OC,1,/,-5.6,10%,8,
COc1ccc(NC(=O)CCSCCC(=O)Nc2ccc(OC)cc2OC)c(OC)c1,5,-12,-1.7,6%,-4,
CCOC(=O)c1ccc(NC(=O)C2CCCN(S(=O)(=O)c3ccc(F)cc3)C2)cc1 (stereo unspecified),98,-34,2.1,5%,-24,
C=CCNc1nc(N)c(C(=O)c2ccc3c(c2)OCO3)s1,-2,-19,/,35%,-9,
COC(=O)c1ccc(Nc2nc3ccc(C)cc3n3cnnc23)cc1,3,/,3.4,/,/,
CCCn1c(N)c(N(CCOC)C(=O)c2ccc([N+](=O)[O-])cc2Cl)c(=O)[nH]c1=O,-4,/,-3.0,/,/,
CCC(C)(C)NC(=O)C(c1ccc(C)o1)N(Cc1cccs1)C(=O)Cn1nnc2ccccc21 (stereo unspecified),-1,-12,-2.2,-11%,-22,
C=Cc1ccc(CSc2cc(C)nc3nc(C)nn23)cc1,0,/,-0.5,-4%,/,
S=C(NCc1cccnc1)Nc1ccc(Cl)c(Cl)c1,29,-11,8.7,58%,-17,
CCOC(=O)c1oc2ccccc2c1COC(=O)CNC(=O)c1ccccc1OC,-7,/,-3.7,/,/,
Cc1ccccc1Nc1nc(N)nc(CSc2nc3ccccc3c(=O)n2C)n1,-4,-18,5.1,6%,23,
Cc1ccc(OCC(=O)NC2CCS(=O)(=O)C2)c([N+](=O)[O-])n1 (stereo unspecified),3,/,-0.6,/,/,
CN1C(=O)/C(=C\c2ccccc2OCc2ccccc2)SC1=S,-1,/,-2.5,/,/,
Cc1ccc(NS(=O)(=O)c2cc([N+](=O)[O-])ccc2N/N=C/c2sc(N3CCOCC3)nc2-c2ccccc2)c(C)c1,40,/,-1.3,8%,/,
CN(C)c1ccc(/C=C/C(=O)c2cccnc2)cc1,21,/,0.2,3%,/,
O=C(CSc1ncccc1C(=O)O)c1ccc2ccccc2c1,-10,-37,13,-4%,6,
NNC(=O)CNC(c1ccccc1)c1cc(Br)ccc1N (stereo unspecified),1,/,1.2,-16%,/,
CCc1ccccc1NC(=O)Nc1cccc(F)c1,-2,/,0.4,8%,7,
COc1ccc(S(=O)(=O)O/N=C2\CCCc3ccccc32)cc1,-10,-1,2.2,/,-2,
COc1cc(CNC2CCCCCCC2)ccc1OCC(N)=O,-4,/,-1.0,/,/,
COCCn1c(=NC(=O)CCS(=O)(=O)c2ccccc2)sc2cc(F)ccc21,?,/,3.6,/,/,
COC(=O)Nc1nn(-c2ccc(Cl)cc2)c(=O)c(C#N)c1C,0,/,7.5,-21%,/,
O=[N+]([O-])c1cccc(S(=O)(=O)Nc2ccc(-c3ccc(N4CCOCC4)nn3)cc2)c1,-4,/,1.6,/,/,
O=C(Cc1cccc2ccccc12)Nc1ccccc1Br,4,/,1.5,/,/,
Cc1ccc(S(=O)(=O)NC(=NC(C)C)c2ccccc2)cc1,13,/,-2.7,-2%,0,
CCOC(=O)Cn1cnc2c(sc3nc(C)cc(C)c32)c1=O,-8,/,-1.3,-1%,/,
CCc1sc(NC(=O)CN2CCC(C(N)=O)CC2)nc1-c1ccccc1,2,/,0.9,/,/,
Nc1nc(SCC(=O)NC2CCCCC2)n[nH]1,-9,/,-1.9,/,/,
Cc1ccc(/C=C2/SC(=S)N(CCCC(=O)Nc3cc([N+](=O)[O-])ccc3O)C2=O)cc1,0,/,-0.7,/,/,
CC1C/C(=N/N2C(=O)CSC2=S)CC(C)(C)C1 (stereo unspecified),-12,-19,/,0%,6,
O=C(c1ccc(NS(=O)(=O)c2cccc3cccnc23)cc1)N1CCCCC1,2,/,-1.9,2%,0,
O=C1CSC(c2cccnc2)N1c1ccc(F)cc1 (stereo unspecified),-12,-23,2.5,-9%,1,
O=C(NCc1ccncc1)c1cncc(Br)c1,-4,/,-1.9,-4%,6,
CCOC(=O)c1ccc(NC(=O)CC2OCCN(CC)C2=O)cc1 (stereo unspecified),84,-17,-4.4,5%,10,
CC1=C(C(=O)Nc2ccccn2)C(c2ccc(Cl)cc2Cl)NC(=S)N1 (stereo unspecified),-4,/,6.7,9%,8,
CSc1nc(SCC(N)=O)c2c3c(sc2n1)CN(C)CC3,0,-28,9.9,0%,10,
CC(=O)c1ccc(OCc2cc(C(=O)NC3CCCCC3)no2)cc1,-19,/,-1.4,/,/,
O=C(c1ccc(Cl)cc1)c1ccc(CN2C(=O)c3ccccc3C2=O)o1,-6,-30,-0.8,-10%,-33,
Cc1ccccc1C(=O)c1cccn1CC(=O)NCCCc1ccccc1,3,/,4.6,/,/,
COc1ccc(C)cc1NC(=O)c1nnn(Cc2cccc(C(F)(F)F)c2)c1N,2,/,4.5,-5%,-29,
Cc1ccc(OCCCn2ccnc2)c(Br)c1,-1,/,0.5,/,/,
CCN1CCN(C(=O)/C=C/c2ccc([N+](=O)[O-])cc2)CC1,-4,10,0.3,4%,0,
# Later entries.
SMILES,Mtb betalactam,YopH inh,RecA intein inh,Mtb H37Rv,Arbovirus anti,others
COc1ccc(NC(=O)CN(c2ccccc2F)S(=O)(=O)c2ccc(C)cc2)cc1,4,/,1.4,/,/,
O=C(O)COCC(=O)N1CCN(C(c2ccccc2)c2ccccc2)CC1,-1,/,-0.7,-2%,/,
CCOC(=O)c1cc(-c2ccc(C)cc2)nc2nc(SC)[nH]c(=O)c12,5,-19,0.3,1%,-13,
O=C1c2ccccc2C(O)(c2ccccc2)N1CCc1ccccc1 (stereo unspecified),5,/,6.9,/,/,
N/C(=N\c1nc2c(c(=O)[nH]1)CCC2)Nc1cccc(Cl)c1,-4,-19,-0.2,2%,-14,

# Gathered by group, the compounds so far with fluorine
SMILES,Mtb betalactam,YopH inh,RecA intein inh,Mtb H37Rv,Arbovirus anti,others
O=C(C1CCCO1)N1CCN(S(=O)(=O)c2ccc(F)cc2)CC1 (stereo unspecified),1,/,-0.9,/,/,
CCOc1c2ccc(C(=O)NCc3cc(C(F)(F)F)cc(C(F)(F)F)c3)cc2nn1CCOC,14,-29,-0.3,0%,3,
CCOC(=O)N/N=C/c1cn(Cc2ccc(F)cc2)c2ccccc12,0,/,0.9,2%,/,
Oc1ccc(Br)cc1-c1cc(-c2ccccc2F)[nH]n1,50,-34,0.7,4%,22,
COc1cccc(NC(=O)CN2CCN(S(=O)(=O)c3ccc(F)cc3)CC2)c1,-1,-18,0.6,-8%,5,
CCOCc1nnc(NC(=O)C2CC(=O)N(CCc3ccc(F)cc3)C2)s1 (stereo unspecified),6,/,2.4,/,/,
CCOC(=O)c1ccc(NC(=O)C2CCCN(S(=O)(=O)c3ccc(F)cc3)C2)cc1 (stereo unspecified),98,-34,2.1,5%,-24,
CCc1ccccc1NC(=O)Nc1cccc(F)c1,-2,/,0.4,8%,7,
COCCn1c(=NC(=O)CCS(=O)(=O)c2ccccc2)sc2cc(F)ccc21,?,/,3.6,/,/,
O=C1CSC(c2cccnc2)N1c1ccc(F)cc1 (stereo unspecified),-12,-23,2.5,-9%,1,
COc1ccc(C)cc1NC(=O)c1nnn(Cc2cccc(C(F)(F)F)c2)c1N,2,/,4.5,-5%,-29,
COc1ccc(NC(=O)CN(c2ccccc2F)S(=O)(=O)c2ccc(C)cc2)cc1,4,/,1.4,/,/,
